Assay outcomes (PubChem BioAssay)
StopGo FLuc: Primary qHTS Assay for Foot and Mouth Disease Virus Antivirals against NCGC Sytravon and CBC Compound Libraries: Firefly Luciferase Signal; 120,000 compounds, 0.23% hits; HEK cells with a luciferase reporter of 2A StopGo recoding; Potency, µM (highest dose often 57.5 µM), inactives show at the top dose signal change, negative = less light; active = well fitted falling curve with a large enough effect; inconclusive = small, poorly fitted or top-dose-only effect; inactive = no such curve, though single readings can be large or run the other way; note: nearly all actives have a fitted effect of over 60% in size; overnight with compound
2A Renilla: Primary qHTS Assay for Foot and Mouth Disease Virus Antivirals against NCGC Sytravon and CBC Compound Libraries: Renilla Luciferase Signal; HEK cells with a luciferase reporter of 2A StopGo recoding; Potency, µM (series often up to 57.5 µM), for inactives: top-dose signal change, negative = less light; 120,000 compounds, 0.32% hits; active means well fitted falling curve with a large enough effect; inconclusive means small, poorly fitted or top-dose-only effect; inactive means no such curve, though single readings can be large or run the other way; note: nearly all actives have a fitted effect of over 55% in size; overnight with compound
The depositor's hits bear a star; ? = inconclusive; & = joins results of further samples; [ ] = remark or other dose. % is set by controls: 0 for no effect and ±100 for the full control effect; potency is the fitted concentration of half-maximal effect. A portion of the library; the hit share may differ from the screen's.

| SMILES | StopGo FLuc | 2A Renilla |
| --- | --- | --- |
| CCn1nc(C(=O)NCC2(c3ccccc3)CCC2)c2ccccc2c1=O | ? | -35% |
| COc1ccc(C(=O)CC#N)c(OC)c1 | 5% | 5% |
| CCc1ccc(NC(=O)CCc2c(C)nc3nc(-c4cc(OC)cc(OC)c4)nn3c2C)cc1 | -4% | -4% |
| O=C(CCc1nnc2ccc(NCc3ccc4c(c3)OCO4)nn12)N1CCC2(CC1)OCCO2 | -4% | ? |
| CC(C)Oc1ccc(CNC(=O)c2sc3ncccc3c2-n2cccc2)cc1 | -19% | 25% |
| COc1ccc(C(=O)NCc2ccc3c(c2)CCN3C(=O)c2ccc(C)cc2)cc1 | -11% | -8% |
| CCc1ccc(C(=O)N2CCc3c(sc4ncnc(N)c34)C2)cc1 | 11% | 56%[activator] |
| Cc1cc(C)cc(-n2ccn(CC(=O)Nc3ccccc3C(F)(F)F)c(=O)c2=O)c1 | -11% | -7% |

Among those listed so far, these have four or more nitrogen atoms.
| SMILES | StopGo FLuc | 2A Renilla |
| --- | --- | --- |
| CCc1ccc(NC(=O)CCc2c(C)nc3nc(-c4cc(OC)cc(OC)c4)nn3c2C)cc1 | -4% | -4% |
| O=C(CCc1nnc2ccc(NCc3ccc4c(c3)OCO4)nn12)N1CCC2(CC1)OCCO2 | -4% | ? |
| CCc1ccc(C(=O)N2CCc3c(sc4ncnc(N)c34)C2)cc1 | 11% | 56%[activator] |

Additional compounds.
| SMILES | StopGo FLuc | 2A Renilla |
| --- | --- | --- |
| Cc1nn(C(C)C(=O)NCCc2ccccc2)c(=O)c2c1sc1ccccc12 (stereo not given) | 3% | -19% |
| Cc1nc2nc(SCC(=O)Nc3ccc(C(C)C)cc3)[nH]c2cc1Br | 47%[activator] | 10% |
| Cc1nc2cc(C(=O)NC3CCCCCC3)ccc2n1-c1ccc(Br)cc1 | -10% | -5% |
| CCCCOc1ccc(CNC(=O)C2COc3ccc(OC)cc3C2)cc1 (stereo not given) | -5% | 13% |
| CC(=C/c1ccccc1)/C=N/Nc1ccc([N+](=O)[O-])cc1 | 199%[activator] | -3% |
| CCCn1nc(C(=O)Nc2cc(C(F)(F)F)ccc2N2CCOCC2)c2ccccc2c1=O | 4% | -4% |
| CCOc1ccccc1NC(=O)C1=C(C)Nc2ncnn2C1c1ccco1 (stereo not given) | 0% | 0% |
| CCc1ccc(-c2cc(C(F)F)n3ncc(C#N)c3n2)cc1 | -14% | -13% |
| COCCNC(=O)Cn1cc(C(=O)c2ccccc2)c2ccccc21 | 1% | 26% |
| CCOC(=O)c1ccc2[nH]c(CSCC(=O)Nc3ccc(F)c(Cl)c3)cc(=O)c2c1 | -12% | 13% |
| Cc1ccc(NC(=O)Cn2nc3ccc(S(=O)(=O)C(C)(C)C)nn3c2=O)cc1 | 15% | -3% |
| Cc1ccc(C(=O)NCCC(=O)N2CCCC2)cc1C | 118%[activator] | -4% |
| Cc1ccc(NC(NC(=O)c2ccccc2)C(Cl)Cl)cc1 (stereo not given) | 16% | -10% |
| CCOC(=O)C1CCN(CC(O)c2cccc(C(F)(F)F)c2)CC1 (stereo not given) | 0% | -1% |
| COc1ccc(-c2cc(C(=O)NC(C)(C)C)c3ccccc3n2)cc1 | 40%[activator] | 4% |
| COc1cccc(CNC(=O)c2cc(C)nc3c2c(C)nn3-c2ccc(C)cc2)c1 | -6% | -7% |
| CCc1cccc(C)c1NC(=O)c1ccc2c(c1)CCN2S(=O)(=O)CC | -16% | 4% |
| CCOC(=O)c1cccc(NC(=O)Cc2ccc(NC(=O)N3CCCCc4ccccc43)cc2)c1 | -3% | 15% |
| CCOc1ccc(CCNC(=O)c2cc3cccc4c3n2CCS4)cc1 | -11% | -15% |
| N#Cc1ccc(NC(=O)N2CCN(Cc3nc(-c4cccc(C(F)(F)F)c4)no3)CC2)cc1 | ? | ? |
| COc1ccc2c(C)c(CC(=O)N3CCN(C(=O)C4COc5ccccc5O4)CC3)c(=O)oc2c1 (stereo not given) | -13% | -10% |
| Cc1cccc(-c2noc(-c3ccccc3C(=O)NCC3CCCO3)n2)c1 (stereo not given) | 116%[activator] | 33%[activator] |
| N#Cc1nc(-c2ccco2)oc1N1CCN(CC(=O)N(Cc2ccccc2F)C2CC2)CC1 | -6% | 29% |
| O=C(CC1C=CCC1)N(Cc1cccs1)C1CC1 (stereo not given) | 12% | 21% |
| O=C(CSc1n[nH]c(-c2ccccc2)n1)Nc1cccc(C(=O)Nc2cccc(C(F)(F)F)c2)c1 | ? | ? |
| N#CCCN(C(=O)CN1C(=O)NC(Cc2c[nH]c3ccccc23)C1=O)c1ccccc1F (stereo not given) | 13% | -7% |
| Cc1nn(C)c(C)c1S(=O)(=O)N(CC(=O)Nc1ccc(F)c(Cl)c1)c1ccc(C(C)C)cc1 | -7% | 32%[activator] |
| CNc1ccc(-c2nc(-c3ccncc3)no2)cc1[N+](=O)[O-] | 65% | -3% |
| CCc1c(C)c2ccc(OCC(=O)c3ccccc3)cc2oc1=O | 176%[activator] | 71%[activator] |
| Cc1cccc(-c2nn3c(=O)cc(CN4CCN(C(=O)c5ccccc5Br)CC4)nc3s2)c1 | 13% | 7% |
| CCOCCCN(Cc1ccco1)S(=O)(=O)c1cc2c(cc1C)NC(=O)CO2 | -16% | 13% |
| Cc1ccc(-c2cc(Nc3cccc(C)c3C)nc(C)n2)cc1 | 49%[activator] | 3% |
| CCc1nn(CC(=O)NCCCN(CC)CC)c(=O)c2cc3occc3n12 | 3% | -3% |
| CC(O)Cn1cnc2c1c(=O)n(C)c(=O)n2C (stereo not given) | -9%[11.5 µM] | 47%[activator] |
| CCn1cc(C(=O)N2CCN(c3ccc(C(C)=O)cc3)CC2)c2cc(OC)c(OC)cc2c1=O | 3% | 14% |
| CCC(=O)Nc1ccccc1C(=O)OC/C(=N\O)c1ccc(OC)cc1 | 45%[activator] | 18% |
| Cc1ccc(NC(=O)Cn2nnnc2-c2ccccc2N)cc1 | -9% | 2% |
| O=C(Cn1nc(C(F)(F)F)c2c1CCCC2)Nc1cccc(Cl)c1 | -5% | -11% |
| COc1ccc(C2CCCCCN2C(=O)CSc2nnnn2C2CC2)cc1 (stereo not given) | 49%[activator] | -2% |
| Cc1ccc(NC(=O)CN2CCC(C(N)=O)CC2)cc1F | 20% | 13% |
| O=C(Cn1nnc2sc(-c3ccccc3)cc2c1=O)Nc1cccc(Cl)c1 | 21% | 3% |
| CSc1ccc(Cl)c(C(=O)NC(C)c2ccncc2)c1 (stereo not given) | 10% | 6% |
| O=C(Nc1nc(-c2ccc(Br)s2)cs1)C1CC1 | 0% | 11% |
| O=C(Cc1ccccc1)Nc1ccc(Oc2ccccc2)cc1 | 166%[activator] | 71%[activator] |
| CCCCOc1ccc(NC(=O)c2ccccc2)c2cccnc12 | -6% | -11% |
| Cc1cc(C)c2nc(-c3ccc(C)c(C)c3)cc(C(=O)O)c2c1 | 129%[activator] | 22% |
| COCCCNC(=O)c1nn(-c2ccc(C)cc2)nc1CO | 4% | -13% |
| CC(C(=O)N(C)Cc1ccccc1)S(=O)(=O)Cc1ccc(Cl)c(Cl)c1 (stereo not given) | 8% | 24% |
| CCOC(=O)c1ccc2c(c1)N(CC(=O)Nc1ccc(C)cc1C)C(=O)c1ccccc1S2 | -13% | -1% |
| O=C(Nc1cccc2cccnc12)c1cccc(S(=O)(=O)N2CCN(Cc3ccccc3)CC2)c1 | -8% | -15% |
| Cc1oc(-c2ccc(C(=O)NCc3ccccc3)cc2)nc1CN1CCc2ccccc21 | ? | ? |
| CCN(Cc1cn(Cc2ccccc2)nn1)S(=O)(=O)c1ccc(N2CCCC2)cc1Br | ? | 25% |
| Cc1cc(Nc2ccc(F)cc2F)nc(-n2nc(C)cc2C)n1 | 0% | -2% |
| O=C(NCc1ccc(Cl)cc1)NC1CC1 | 0% | 6% |
| O=C(CSc1ccccc1Br)c1ccc2c(c1)OCCO2 | 9% | 80%[activator] |
| CCn1cc(C(=O)N2CCN(c3ccccc3OC)CC2)c(=O)c2cc(S(=O)(=O)N3CCCCC3)ccc21 | 19% | -9% |

Next structures follow:
| SMILES | StopGo FLuc | 2A Renilla |
| --- | --- | --- |
| O=C(COCc1cc(-c2cccs2)on1)N1CCN(c2cccc(Cl)c2)CC1 | -27% | -27% |
| CCOC(=O)c1[nH]c2ccc(C)cc2c1NC(=O)CC | 13% | -4% |
| O=c1ccn(O)cc1[N+](=O)[O-] | 0% | -4% |
| Cc1sc2c(c1C)c(=O)n(CCc1ccccc1)c(=O)n2Cc1cccc(F)c1 | 0% | 25% |
| CCCCCSc1ncnc2c1sc1nc(N3CCOCC3)c3c(c12)CCCC3 | -7% | 1% |
| O=C(Nc1nccs1)NC1CC(=O)N(c2cccc(F)c2)C1 (stereo not given) | -17% | -16% |
| CCOc1cc(C2C(C(=O)c3ccco3)=C(O)C(=O)N2c2cc(C)on2)ccc1O (stereo not given) | 42%[activator] | 38%[activator] |
| COC(=O)C(CC(C)C)NC(=O)CC(c1ccccc1)c1ccccc1 (stereo not given) | 3% | -4% |

The list goes on; it opens with the six that closed the last part.
| SMILES | StopGo FLuc | 2A Renilla |
| --- | --- | --- |
| O=c1ccn(O)cc1[N+](=O)[O-] | 0% | -4% |
| Cc1sc2c(c1C)c(=O)n(CCc1ccccc1)c(=O)n2Cc1cccc(F)c1 | 0% | 25% |
| CCCCCSc1ncnc2c1sc1nc(N3CCOCC3)c3c(c12)CCCC3 | -7% | 1% |
| O=C(Nc1nccs1)NC1CC(=O)N(c2cccc(F)c2)C1 (stereo not given) | -17% | -16% |
| CCOc1cc(C2C(C(=O)c3ccco3)=C(O)C(=O)N2c2cc(C)on2)ccc1O (stereo not given) | 42%[activator] | 38%[activator] |
| COC(=O)C(CC(C)C)NC(=O)CC(c1ccccc1)c1ccccc1 (stereo not given) | 3% | -4% |
| CCc1nnc(C(=O)Nc2cccc(C(=O)N3CCOCC3)c2)s1 | 0% | -11% |
| O=C(Nc1cccc(OCC2CCCO2)c1)C1CCN(C(=O)Nc2ccccc2)CC1 (stereo not given) | 6% | -15% |
| COCCCNC(=O)C1CCN(Cc2nc(-c3ccc(OC)c(OC)c3)oc2C)CC1 | -8% | -17% |
| COc1ccc(OC)c(S(=O)(=O)N2CC=C(c3c(C)n(CC(=O)N4CCCC4)c4ccccc34)CC2)c1 | ? | ? |
| O=C(CSc1nc2c([nH]c3ccccc32)c(=O)n1-c1ccc(F)cc1)N1CCCc2ccccc21 | 26% | -12% |
| Cc1ccc(-c2nc(SCC(=O)N3CCCC3c3ccc4c(c3)OCCO4)n[nH]2)cc1 (stereo not given) | ? | 20µM* |
| Cc1nc2ccc(C(=O)NCC3CN(CC(C)C)CCO3)cc2nc1C (stereo not given) | 7% | -20% |
| COc1ccccc1-n1c(/C=C/c2c(C)n(C)c3ccccc23)nc2ccccc2c1=O | 0% | -5% |
| O=C(OCc1ccccc1)c1cc(Cl)c[nH]1 | 131%[activator] | 45%[activator] |
| Cc1onc(-c2ccccc2Cl)c1C(=O)N1CCN(S(=O)(=O)c2c(F)cccc2F)CC1 | -10% | -8% |
| O=c1[nH]c(=O)n(Cc2ccccc2)c2c1CN(Cc1ccccc1Cl)CN2 | -1% | 8% |
| CCOC(=O)CSc1nc2ccccc2c(=O)n1-c1ccccc1OC | 14% | 9% |
| CC(C)(C)c1cc(-c2cc(Br)c(O)c(C(C)(C)C)c2)cc(Br)c1O | 3% | 3% |
| COc1cccc(C(=O)N(Cc2nc(-c3ccc(Cl)cc3)no2)C(C)C)c1OC | 14% | 7% |
| CC(C)Cn1c(-c2ccc(S(=O)(=O)N3CCOCC3)cc2)csc1=Nc1cc(Cl)ccc1Cl | -16% | -14% |
| O=C(CSc1ccccc1)NCc1ccc2c(c1)CCN2C(=O)c1ccc(F)cc1 | -15% | 19% |
| O=c1c2oc3ccccc3c2n(Cc2ccccc2)c(=O)n1Cc1ccco1 | 6%&-22% | 0%&-2% |
| CCc1ccc(CNC(=O)C(CC)n2nc(C)c3c(C)n(-c4ccccc4)nc3c2=O)cc1 (stereo not given) | 1% | 4% |
| CCOc1ccc(-c2cc3c(=O)n(Cc4nc(-c5cccc(OC)c5OC)oc4C)ccn3n2)cc1Cl | 7% | -1% |
| O=C(CSC1=NCCS1)N(Cc1ccc(Cl)cc1)C12CC3CC(CC(C3)C1)C2 | -12% | -7% |
| CC(=O)Nc1ccc(NC(=O)C2CCCN2c2ncnc3ccccc23)cc1 (stereo not given) | 2% | -6% |
| CCC1CN(C(=O)N2CCC(C(=O)NCCN(CC)CC)CC2)c2cc(C)ccc2O1 (stereo not given) | -30% | -10% |
| COc1cc(OC)c2c(C)c(CC(=O)Nc3ccc(Cn4cncn4)cc3)c(=O)oc2c1 | -4% | 8% |
| COc1ccc(CNC(=O)C2=C(C)C(=O)OC23CCCCC3)cc1 | -8% | 6% |
| CC(C)(C)c1ccccc1NC(=O)c1cnc(Cl)c(Cl)c1 | -16% | -10% |
| C/C(=N/Nc1ccc(S(N)(=O)=O)cc1[N+](=O)[O-])c1ccc(Cl)c(Cl)c1Cl | -1% | -14% |
| Brc1ccc2[nH]c3c(c2c1)CCCC3 | 0% | -9% |
| CN(C(=O)c1ccccc1)N(C)C(=O)c1ccccc1 | 63%[activator] | 21% |
| CCc1cc(C(=O)O)c2c(C3CC3)nn(-c3ccccc3F)c2n1 | 18% | 13% |
| O=C(NCCNS(=O)(=O)c1cccc2nonc12)c1ccc2cc[nH]c2c1 | 2% | 14% |
| Cc1cccc(NC(=O)CC2(C(=O)O)CCCCC2)c1C | 3% | 9% |
| CC(C)(C)c1ccc(C(=O)Nc2ccc(Cl)cn2)cc1 | 6% | 26% |
| CC1=C(C(=O)Nc2ccccc2C)C(c2ccccc2)NC(=O)N1 (stereo not given) | 5% | -3% |
| COc1cc(C2NC(=O)N(C)C3=C2C(=O)N(c2ccccc2)C3)ccc1O (stereo not given) | 7% | 1% |
